# hNpr1 antagonist: human Npr1 receptor antagonism | P16066 | HEK293 hNpr1 GloSensor cGMP, ANP-stimulated luminescence | Potency, µM (series often up to 46.3 µM), for inactives: at the highest dose activity change, negative = inhibition, actives largely listed as inhibitors | 76,000 compounds, 1.6% hits | AID 1347048; active = well fitted inhibition curve with a large enough effect; inconclusive = small, poorly fitted or top-dose-only effect; inactive = no such curve, though single readings can be large or run the other way;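 also: nearly all actives have a fitted effect of over 60% in size; nearly all hits also lower the signal before the agonist is added; a reference antagonist and vehicle were the controls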
# Target sequence (P16066 whole entry, looked up): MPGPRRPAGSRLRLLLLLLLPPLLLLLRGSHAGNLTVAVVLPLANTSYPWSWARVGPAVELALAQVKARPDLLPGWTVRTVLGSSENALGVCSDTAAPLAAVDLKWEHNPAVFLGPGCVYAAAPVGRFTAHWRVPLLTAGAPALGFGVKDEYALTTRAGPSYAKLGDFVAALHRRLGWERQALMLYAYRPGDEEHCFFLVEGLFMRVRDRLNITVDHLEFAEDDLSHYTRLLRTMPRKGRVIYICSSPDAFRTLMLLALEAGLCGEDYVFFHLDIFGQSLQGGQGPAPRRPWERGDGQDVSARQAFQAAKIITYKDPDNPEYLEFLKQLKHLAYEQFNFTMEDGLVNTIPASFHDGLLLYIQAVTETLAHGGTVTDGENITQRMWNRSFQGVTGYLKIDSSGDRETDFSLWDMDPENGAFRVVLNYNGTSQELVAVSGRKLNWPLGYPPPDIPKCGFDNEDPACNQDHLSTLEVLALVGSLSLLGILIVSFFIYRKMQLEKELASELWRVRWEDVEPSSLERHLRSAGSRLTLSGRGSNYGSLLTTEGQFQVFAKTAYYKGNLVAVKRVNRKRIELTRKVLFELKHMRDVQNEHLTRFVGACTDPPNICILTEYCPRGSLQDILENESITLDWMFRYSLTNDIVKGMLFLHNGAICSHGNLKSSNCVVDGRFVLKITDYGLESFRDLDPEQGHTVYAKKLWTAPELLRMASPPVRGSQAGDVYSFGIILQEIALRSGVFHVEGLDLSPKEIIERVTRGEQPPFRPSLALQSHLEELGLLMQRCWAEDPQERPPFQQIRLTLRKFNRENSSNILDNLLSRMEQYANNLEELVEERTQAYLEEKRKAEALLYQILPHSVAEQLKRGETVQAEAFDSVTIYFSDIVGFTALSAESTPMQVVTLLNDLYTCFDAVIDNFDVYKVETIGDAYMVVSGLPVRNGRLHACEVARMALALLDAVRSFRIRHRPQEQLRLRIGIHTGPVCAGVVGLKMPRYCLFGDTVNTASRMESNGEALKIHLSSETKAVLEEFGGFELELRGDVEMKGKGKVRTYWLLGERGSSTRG
#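 Compound pre-incubated 30 min at room temperature on GloSensor-loaded HEK293 cells stably carrying hNpr1 and the pGS-40F cGMP biosensor. Stimulation uses hNppA at 0.1 nM final; luminescence is taken at baseline and 20 min post-agonist.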
# An asterisk follows results filed as active; ? = inconclusive; [ ] = remark or other dose. % is scaled to controls: 0 for no effect and ±100 for the full control effect; potency is read from the fitted curve at half-maximal effect. A portion of the library. The share of hits here may be higher or lower than overall.
SMILES,hNpr1 antagonist
C[S+](=O)([O-])c1ccc(-c2cnc3n[nH]c(-c4ccccc4)c3n2)cc1,-17%[70.6 µM]
O=C(CCc1cc2n(n1)CCCNC2)N[C@H]1CCC[C@H]1Cc1ccc(F)cc1,-4%
O=C(NC1C[C@H]2CC[C@@H](C1)N2C(=O)c1cccc(C(F)(F)F)c1)c1ccncc1 (some centres not stated),2%
O=C(NCCc1ccncc1)C1Cn2cccc2C(=O)N1Cc1ccccc1 (configuration not stated),9%
COCc1cccc(-c2n[nH]c3c2CC(=O)N(c2ccccc2)C3)c1,-3%[70.6 µM]
O=C(Nc1ccc(C2(C(=O)NCc3ccc(F)cc3)CCCCC2)cc1)C1CC1,7%
NC(=O)[C@@H]1CN(C(=O)CC2CC2)C[C@H]1COc1ccccc1,0%
CCc1nc(C)c(C(=O)N2CCOC(CCCC(C)C)C2)o1 (configuration not stated),-1%
O=C(NC1CCCCC1)[C@@H]1C[C@@H](O)CN1C1CCN(C(=O)C2CC2)CC1,2%
Cc1ccc(C(=O)N2CCC3(CC2)NC(=O)N(c2ccccc2)N3)s1,-4%
CN(C)C(=O)c1ccc(-c2ccccc2N(C)C)nc1,0%
CC(=O)c1ccc(NC(=O)N[C@@H]2C=C(C(=O)N[C@H](CC(C)C)C(N)=O)C[C@@H](O)[C@@H]2O)cc1,5%
COC(=O)C1CCN(C(=O)CC[C@H]2CNC(=O)[C@@H]3[C@@H](CCN3C(C)C)N2C)CC1,10%[70.6 µM]
CCOc1cc(=O)n2c(c1C(=O)N1CCN(c3ccc(F)cc3)CC1)CCCC2,-1%
CCN(CC)CC[C@H]1CN(C(=O)C2CCC2)CC[C@H]1CC(=O)O,0%[70.6 µM]
CCN1c2cc(C(=O)Nc3ccc(Cl)cc3)ccc2C(=O)N2CCCCCC21 (configuration not stated),-7%
Cc1cccc(NC(=O)CC2CCCN(c3cnn(C)c(=O)c3)C2)c1 (configuration not stated),2%
Cc1cn2nc(C(=O)NC(C)c3ccccc3)cc2c(N2CCCC2)n1 (configuration not stated),-1%
Cc1oc2c(c1C(=O)N(C)CCc1ccccn1)CN(Cc1cccc(F)c1)CC2,-21%
CCN1c2cc(C(=O)NC3CCCC3)ccc2C(=O)N2CCCCC21 (configuration not stated),0%
Cn1nnnc1C1CCCN(C(=O)c2ccccc2)C1 (configuration not stated),16%
O=C(c1ccoc1)N1CCCN(c2cc(-c3ccc(Cl)cc3)[nH]n2)CC1,-11%
O=C(CN1CCCn2nc(CO)cc2C1)Nc1nnc(C2CCC2)s1,3%
Cc1cc(=O)n(CC(=O)Nc2ccccc2F)c(-c2ccc(F)cc2)n1,-13%
O=C1CCC[C@@H]2C3CC(CN(C(=O)C4(c5ccccc5)CC4)C3)CN12 (some centres not stated),-3%
CC(Cn1cccn1)C(=O)N1CCc2onc(-c3ccc(F)c(F)c3)c2C1 (configuration not stated),-11%
COc1ccccc1CNC(=O)c1c(OCC2CC2)cc(=O)n2c1CCCCC2,0%
Cc1ccc(C2(C(=O)N3C[C@@H](CN4CCCCC4)[C@@H](CO)C3)CC2)cc1,2%
Cc1ccc(C(=O)N2CCC3(C2)C(=O)N(C)c2ccccc23)cc1 (configuration not stated),18%[70.6 µM]
CC(C)C(=O)Nc1ccc2c(N3CCCCC3)ncnc2c1,-1%
Cc1noc(-c2ccc3c(c2)OCO3)c1C(=O)NCCCOC(C)C,5%
COc1ccc([C@@H]2CN(C(=O)CCn3nccc3C)C[C@H]2N(C)C)cc1,5%
CN(CCc1ccccc1)[C@@H]1[C@H](O)[C@H](CO)O[C@@H]1CNC(=O)c1cccc(F)c1,-2%
CCc1noc(-c2cccn3c(CNC(=O)c4cccc(N(C)C)c4)nnc23)n1,-1%
Cc1cccc(OCCc2noc(C3CCCN3)n2)c1 (configuration not stated),-1%
Cc1noc2c(N3CC(O)C3)cc(-c3cccc(C(F)(F)F)c3)nc12,?
Cc1ncc2c(c1CNS(=O)(=O)N(C)C)CCN(C(=O)c1cccc(N3CCCC3=O)c1)C2,-5%
CN(CC1CCOC1)S(=O)(=O)c1ccc(C(F)(F)F)cc1 (configuration not stated),1%
O=C(NCCc1nc(-c2ccccc2)cs1)C1CC(=O)N(c2n[nH]c3ccccc23)C1 (configuration not stated),-2%
CC(C)c1ccc(C(=O)N2C[C@@H](CO)[C@H](N(C)C)C2)cc1,-11%
NC(=O)c1cccnc1N1CCC(n2cc(-c3ccccc3Cl)nn2)CC1,-9%
O=C(c1ccco1)N1CCCC(c2noc(COc3ccccc3)n2)C1 (configuration not stated),0%
Cc1nc(C)c(C(=O)NCC23CCC=C2N(CC2CC2)C(=O)CC3)s1 (configuration not stated),4%
O=C(NCC12CCCC=C1N(Cc1ccccc1)C(=O)CC2)c1ccncc1 (configuration not stated),0%
CN(C)C[C@@H]1CN(S(C)(=O)=O)C[C@H]1NC(=O)CCn1cccn1,-1%
Cc1ccc([S+](=O)([O-])N2CCn3c(nn(-c4ccc([N+](=O)[O-])cc4)c3=O)C2)cc1,7%
c1ccc(-c2cn3c(n2)CO[C@@H](CNC2CCOCC2)C3)cc1,1%[70.6 µM]
COCCN1C(=O)c2cccn2CC1CNC(=O)c1ccc(Cn2ccnc2)o1 (configuration not stated),-6%
O[C@@H]1CCN(Cc2nc(C3(O)CCN(C4CCOCC4)CC3)cs2)C1,6%[70.6 µM]
CN(C)C(C(=O)N1CCC(OCc2cccnc2)CC1)c1cccc(F)c1 (configuration not stated),-2%

# The results go on.
SMILES,hNpr1 antagonist
CCn1cc(S(=O)(=O)NCCc2noc(-c3ccncc3)n2)cn1,0%
CCC(c1cccnc1)N(C)C(=O)c1cc(COc2ccccc2)[nH]n1 (configuration not stated),-1%
COCCNS(=O)(=O)c1cc(C(=O)O)cc(-c2cccc3cccnc23)c1,4%
CC(C)CCN1CCNC(=O)C1CC(=O)NCc1ccc(O)cc1O (configuration not stated),1%
CCCn1nc(C)c2c1NC(=O)CC2c1ccc(OCC(N)=O)c(OC)c1 (configuration not stated),4%
COc1ccc(NC(=O)N[C@H]2CO[C@H]3[C@@H]2OC[C@@H]3n2nnnc2Oc2ccccc2)cc1,-10%[70.6 µM]
COc1ccc(CN2CCC3(CC(=O)NC3=O)C2)cc1OCc1ccccc1 (configuration not stated),3%
COCc1ccc2c(c1)c(OC(C)(C)C(=O)NCC(F)(F)F)nn2Cc1cccnc1,4%[70.6 µM]
Cc1ccc(C(=O)N2CCC3(CC2)C(C(=O)O)CC(=O)N3C)s1 (configuration not stated),5%
CCc1cnc(C)nc1N1CCC2(CC1)CC(c1ccccc1)C(=O)N2C (configuration not stated),-8%
O=C(NC1CC1)c1ccccc1OC1CN(Cc2ccsc2)C1,7%
CCOC(=O)N1CCC(N2CCc3nc(-c4ccc(Cl)cc4)[nH]c3C2)C1 (configuration not stated),-2%
Cc1noc(C)c1CN[C@@H]1C[C@H](CO)[C@@H](O)[C@H]1O,-14%[70.6 µM]
Cc1ccc(CNC(=O)N2CCC3(CC2)CC(N(C2CC2)S(C)(=O)=O)CCO3)cc1 (configuration not stated),-8%
COc1ccc(CN2CCc3ncc(C(=O)N4CCC(c5ccccc5)CC4)n3CC2)cn1,?
COc1ccc(N2CC(c3noc(-c4ccc(OC)cc4C)n3)CC2=O)cc1 (configuration not stated),-19%
COc1cccc(C(=O)N2CCN(c3cc(-c4ccccc4)[nH]n3)CC2)c1OC,2%
CSc1cccc(NC(=O)CN2C(=O)NC3(CCC(C)CC3)C2=O)c1 (configuration not stated),-15%
Cc1ncsc1-c1nc(CC2CCN(C)CC2)nn1Cc1ccccc1,0%
O=C(O)CCC1CCN(S(=O)(=O)c2ccccc2)CC1,4%

# Three records drawn at random from those above:
SMILES,hNpr1 antagonist
Cc1ccc(CNC(=O)N2CCC3(CC2)CC(N(C2CC2)S(C)(=O)=O)CCO3)cc1 (configuration not stated),-8%
COc1ccc(N2CC(c3noc(-c4ccc(OC)cc4C)n3)CC2=O)cc1 (configuration not stated),-19%
O=C(O)CCC1CCN(S(=O)(=O)c2ccccc2)CC1,4%

# Continued.
SMILES,hNpr1 antagonist
CC(C)c1ccc(CC(=O)N2CCCc3ncc(C(=O)NCC4CCCO4)cc32)cc1 (configuration not stated),2%[70.6 µM]
CN(Cc1cnn(C)c1)Cc1ccccc1OCC(O)CN1CCCCC1 (configuration not stated),-1%
Cc1ccc(-c2nc(C(=O)NCc3ccc(OC(C)C)cc3)no2)cc1,6%
COc1ccc(C(=O)N[C@H]2[C@H](O)[C@H](O)C[C@@H]2c2cccnc2)cc1,-2%[70.6 µM]
O=C(Cn1c(=O)c2c(n1Cc1ccccc1)CN(Cc1ccccc1)CC2)NCc1ccc2c(c1)OCO2,-11%
CCCCC(=O)N1CCC(OC2CCN(Cc3cccnc3)CC2)CC1,6%
O=c1n(CC2CC2)nc2n1CCN(Cc1ccc3[nH]ccc3c1)CC2,-12%
COCc1cc(N2CCC(c3cccc(OC)c3OC)C2)ncn1 (configuration not stated),3.2µM*
COc1cccc(NC(=O)[C@@H]2C[C@@H](c3cccc(C(F)(F)F)c3)N(C)C2)c1,-20%[70.6 µM]
O=C(NCc1cccc(F)c1)C1CN(c2ccccc2)C(=O)N1 (configuration not stated),28%[70.6 µM]

# Some of these compounds in order of their number in hNpr1 antagonist, rising:
SMILES,hNpr1 antagonist
O=c1n(CC2CC2)nc2n1CCN(Cc1ccc3[nH]ccc3c1)CC2,-12%
O=C(Cn1c(=O)c2c(n1Cc1ccccc1)CN(Cc1ccccc1)CC2)NCc1ccc2c(c1)OCO2,-11%
CN(Cc1cnn(C)c1)Cc1ccccc1OCC(O)CN1CCCCC1 (configuration not stated),-1%
CCCCC(=O)N1CCC(OC2CCN(Cc3cccnc3)CC2)CC1,6%

# (continued)
SMILES,hNpr1 antagonist
COc1cccc(N2CCN(C(=O)C3CCCN(c4cnc5nccnc5c4)C3)CC2)c1 (configuration not stated),?
Cc1ccc(C(=O)N[C@H]2CO[C@H]3[C@@H]2OC[C@@H]3Nc2nccc(-c3cccc(F)c3)n2)cc1,3%[70.6 µM]
Cc1cc(Cl)ccc1NC(=O)c1cnc(-c2ccccc2)nc1-c1ccncc1,?
CCOCC(=O)N[C@@H]1CN(c2ncccn2)C[C@H]1CO,-2%
Cn1ccnc1C(=O)N1CCC(N2C(=O)C(OCC3CC3)C23CCOCC3)CC1 (configuration not stated),5%
COCCN1C(=O)c2cccn2CC1CNC(=O)Cc1c(C)noc1C (configuration not stated),9%
O=C(C1CCOCC1)N1CCC(N2C(=O)C(O)C23CCCCC3)CC1 (configuration not stated),6%
CO[C@H]1C(=O)N(C(C)C)[C@H]1C1CCN(CC2CCCCC2)CC1,-2%
Cn1nc2n(c1=O)CCC(NC(=O)CCS(=O)(=O)c1ccccc1)CC2 (configuration not stated),1%
COCCCn1c(C)cc(C(=O)NCCc2noc(COC)n2)c1C,0%

# The last 2 compounds of the part above are carried over, then new ones follow:
SMILES,hNpr1 antagonist
Cn1nc2n(c1=O)CCC(NC(=O)CCS(=O)(=O)c1ccccc1)CC2 (configuration not stated),1%
COCCCn1c(C)cc(C(=O)NCCc2noc(COC)n2)c1C,0%
O=C(CN1C(=O)NC2(CCOCC2)C1=O)Nc1ccc(Br)cc1,4%
Cc1ccc(S(N)(=O)=O)cc1C(=O)N1CCC2(CCCNC2=O)C1 (configuration not stated),-2%
O=C(c1ccc(N2CCCOCC2)nc1)N1CCC(CCn2cccn2)CC1,-2%
COc1cccc(COC2CN(CC(C)C)C(=O)CN(C(=O)c3csc(C(C)=O)c3)C2)c1 (configuration not stated),-5%
Cc1nn(C)cc1C(=O)N1CCC2(CC1)CC(c1ccccc1)C(=O)N2 (configuration not stated),1%
CCC1Oc2ccc(NC(=O)c3ccccc3OC)cc2CN(Cc2ccc(OC)cc2)C1=O (configuration not stated),-2%
O=C(NCc1cccnc1)C1c2ccccc2C(=O)N(C2CCCC2)C12CCCCC2 (configuration not stated),-9%
COC(=O)[C@@H]1Cc2ncn(C(C)C)c2CN1C(C)=O,4%[70.6 µM]
CC(C)N1C(=O)Cc2ccccc2C1C(=O)NCc1ccccc1Br (configuration not stated),?
O=C(Cc1cccs1)Nc1ccc2c(c1)CN(Cc1ccccc1F)C(=O)CO2,-18%
COCC1CN(S(=O)(=O)c2cnc[nH]2)CC12CCNCC2 (configuration not stated),-5%
O=C(Nc1cccc(C(F)(F)F)c1)N[C@H]1CO[C@H]2[C@@H]1OC[C@@H]2n1cc(CC2CCCCC2)nn1,?
CCCNC(=O)N1CCC(Oc2ncccc2C(=O)N(C)C)C1 (configuration not stated),-4%
CCN1CCC2(CCC1=O)CN(Cc1noc(CC(C)C)n1)CCN2C (configuration not stated),1%
CCN1c2cc(C(=O)NCc3cccc(C)c3)ccc2C(=O)N2CCCCC21 (configuration not stated),-6%
CC(=O)N[C@H]1CC[C@]2(C)CC[C@@H]([C@H](C)C(=O)NCc3ccco3)[C@H](O)[C@H]2[C@@H]1C,6%[70.6 µM]
COc1ccc(-c2ccc3nnc(CNC(=O)CCc4ccccc4)n3n2)cc1,6%
CCc1nc2c(c(-c3ccc(O)cc3)n1)CN(Cc1ccc(C(F)(F)F)cc1)CC2,5%
S=C(NC1CCCCC1)N[C@H]1CO[C@H]2[C@@H]1OC[C@@H]2n1nnnc1Oc1ccc2c(c1)OCO2,?

# A draw from above in order of heavy-atom count, ascending.
SMILES,hNpr1 antagonist
CCN1CCC2(CCC1=O)CN(Cc1noc(CC(C)C)n1)CCN2C (configuration not stated),1%
COc1ccc(-c2ccc3nnc(CNC(=O)CCc4ccccc4)n3n2)cc1,6%
CCc1nc2c(c(-c3ccc(O)cc3)n1)CN(Cc1ccc(C(F)(F)F)cc1)CC2,5%
